DRD3 antagonist: qHTS of D3 Dopamine Receptor Antagonist: qHTS; 360,000 compounds, 2.5% hits; max response, negative = inhibition, %; D3R cells, DiscoveRx beta-arrestin luminescence, antagonist mode; stronger effect = lower value; in the data active means max response below about -50%; inconclusive means no clear call, values can overlap the other calls; further: on the % scale 0 is the no-effect control and ±100 the full control effect; mostly tested at two doses, the higher about 12 µM
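Cells plated overnight at 1500 cells/well, then exposed to library compounds with dopamine controls for 90 minutes at 37 degrees C. DiscoveRx reagent added for 30–60 minutes at room temperature; luminescence read, quantitative HTS format.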
EPAC2 ag: qHTS for Agonist of cAMP-regulated guanine nucleotide exchange factor 4 (EPAC2): primary screen; EPAC2 activation, biochemical qHTS; response scale: 100% = 6.5 mM cAMP response; Potency, µM (series often up to 154 µM), without a hit: at the top dose activation, actives largely listed as activators; Rap guanine nucleotide exchange factor 4 (Homo sapiens), Q8WZA2; 360,000 compounds, 0.079% hits; AID 720711, 2013; further: potency means the concentration at half of the fitted maximal effect; nearly all actives have a fitted effect of over 50% in size
Target sequence (Q8WZA2 whole entry, looked up): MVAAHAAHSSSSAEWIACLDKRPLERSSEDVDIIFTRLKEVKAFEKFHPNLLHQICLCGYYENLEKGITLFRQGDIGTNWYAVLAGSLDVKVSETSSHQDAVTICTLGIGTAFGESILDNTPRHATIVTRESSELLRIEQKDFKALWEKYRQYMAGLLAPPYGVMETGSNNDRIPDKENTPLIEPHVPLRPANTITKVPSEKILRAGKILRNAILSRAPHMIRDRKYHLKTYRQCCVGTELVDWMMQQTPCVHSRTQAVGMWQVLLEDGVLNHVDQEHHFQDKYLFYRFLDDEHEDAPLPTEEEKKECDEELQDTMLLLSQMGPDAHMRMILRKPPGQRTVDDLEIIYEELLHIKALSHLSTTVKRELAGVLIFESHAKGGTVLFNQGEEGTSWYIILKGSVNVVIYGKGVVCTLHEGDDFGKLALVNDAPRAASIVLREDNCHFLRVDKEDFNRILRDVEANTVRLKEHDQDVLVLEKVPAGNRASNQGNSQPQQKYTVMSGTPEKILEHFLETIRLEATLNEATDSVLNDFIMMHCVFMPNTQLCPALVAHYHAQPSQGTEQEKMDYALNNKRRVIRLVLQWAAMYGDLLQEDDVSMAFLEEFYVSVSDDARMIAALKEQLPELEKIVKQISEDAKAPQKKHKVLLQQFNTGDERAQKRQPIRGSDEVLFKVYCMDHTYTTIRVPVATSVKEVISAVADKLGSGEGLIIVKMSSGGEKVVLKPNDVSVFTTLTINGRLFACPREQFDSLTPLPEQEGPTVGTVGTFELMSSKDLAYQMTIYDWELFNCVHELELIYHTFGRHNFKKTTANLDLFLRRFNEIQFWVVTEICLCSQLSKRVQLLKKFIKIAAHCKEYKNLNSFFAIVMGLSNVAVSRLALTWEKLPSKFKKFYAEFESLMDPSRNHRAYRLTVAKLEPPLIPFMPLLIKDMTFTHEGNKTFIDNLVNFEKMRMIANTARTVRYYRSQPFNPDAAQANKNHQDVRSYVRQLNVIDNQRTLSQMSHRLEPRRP
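Guanine nucleotide exchange by EPAC2 is measured as reduced fluorescence of BODIPY-GDP once it is released from 250 nM Rap1B. Plates are read kinetically for 30 min at room temperature; results are scaled to 6.5 mM cAMP.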
Mm-Cpn inhibitor: Inhibitors of TCP-1 ring complex (TRiC) of Methanococcus maripaludis (MmCpn): qHTS | Potency, µM (titrated, usually from 76.9 µM), without a hit: top-dose activity, negative = inhibition, hits mostly inhibitors | Chaperonin Mm-Cpn (Methanococcus maripaludis) | 330,000 compounds, 0.031% hits | purified Mm-Cpn ATPase, ADP Transcreener TR-FRET; further: potency means the concentration at half of the fitted maximal effect; on the % scale 0 is the no-effect control and ±100 the full control effect; nearly all actives have a fitted effect of over 80% in size
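Eu-cryptate anti-ADP/ADP-d2 competition gives a ratio inversely related to ADP. Enzyme at 25 nM was pre-exposed to compound for 10 min, then given 10 uM ATP for 30 min, 37°C throughout.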
Akt phos inh: HTS Assay for Inhibitors of Akt Phophorylation: Primary Screen; Neuro2A IGF-stimulated pAkt S473 HTRF, 20 min; stronger effect = lower value; activity change, % for hits at 50 µM; 360,000 compounds, 0.32% hits; in the data active means activity change below about -80%; inconclusive means mostly about -51% to -80%; further: on the % scale 0 is the no-effect control and ±100 the full control effect
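Neuro2A cells in DMEM with 0.5% FBS, overnight at 37 deg C, given compound at single 50 µM final, then IGF (6 nM final) for 20 min at 37 deg C. Lysed; phospho-Akt Ser473 by HTRF after 24 h, 665/615 ratio.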
DRD3 agonist: qHTS of D3 Dopamine Receptor Agonist: qHTS. D3R DiscoveRx beta-arrestin cells, luminescence, 90 min. max activation, %. 410,000 compounds, 0.58% hits; in the data active means max activation above about 30%; further: 0% is about no effect; mostly tested at two doses, the higher about 12 µM
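Cells at 1500/well, incubated overnight, then treated with pinned compounds (dopamine as control) for 90 min at 37 degrees C. DiscoveRx reagent added for 30 - 60 minutes at room temperature; luminescence read.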
CCT modulator: High-Throughput Screening for Modulators of Cytosolic Chaperonin Activity; purified chaperonin ATPase assay, HTRF ADP detection, 30 min; activity change, % (concentration not given with the values), hits read low; 360,000 compounds, 0.3% hits; AID 651819, 2012; in the data active means activity change below about -30%; further: on the % scale 0 is the no-effect control and ±100 the full control effect
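First, chaperonin was dispensed at 40 nM or 20 nM final depending on batch activity. Next, compounds were pinned at 76 uM and ATP added at 10 uM. After 30 min at 37 °C, ADP detection reagents ran 30 min at ambient temperature.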
EPAC2 antagonist: qHTS for Antagonist of cAMP-regulated guanine nucleotide exchange factor 2 (EPAC2): primary screen; 360,000 compounds, 0.18% hits; AID 720708, 2013; Rap guanine nucleotide exchange factor 4 (Homo sapiens), Q8WZA2; Potency, µM (doses to about 114 µM), for inactives: at the highest dose activity, negative = inhibition, actives largely listed as inhibitors; EPAC2 GEF exchange of Rap1B-BODIPY-GDP, fluorescence; further: potency means the concentration at half of the fitted maximal effect; on the % scale 0 is the no-effect control and ±100 the full control effect; nearly all actives have a fitted effect of over 45% in size; many of its hits are not listed in these tables
The depositor's hits bear a star; i = inactive; ? = inconclusive; nt = not tested or not shown; & = joins results of further samples. Unless noted, the call rests on the fitted dose curve; in most records, active means well fitted curve in the direction sought with a large enough effect; inconclusive means small, poorly fitted or top-dose-only effect, or another doubt; inactive means no such curve, though single readings can be large; an effect the other way counts as inactive or inconclusive. This is a subset; rates above refer to the full screens.

A first look (2 entries):
item	SMILES	DRD3 antagonist	EPAC2 ag	Mm-Cpn inhibitor	Akt phos inh	DRD3 agonist	CCT modulator	EPAC2 antagonist
1	CCN(CC)CCNC(=O)CS(=O)Cc1nc(-c2ccc(C)cc2)oc1C (configuration not stated)	7	4%	-2%	i	7	-1.8	0%
2	O=C(O)c1ccc(S(=O)(=O)N2CCSCC2)cc1	-6	5%	1%	i	4	0.9	0%

Main list, from the first entry:
item	SMILES	DRD3 antagonist	EPAC2 ag	Mm-Cpn inhibitor	Akt phos inh	DRD3 agonist	CCT modulator	EPAC2 antagonist
1	CCN(CC)CCNC(=O)CS(=O)Cc1nc(-c2ccc(C)cc2)oc1C (configuration not stated)	7	4%	-2%	i	7	-1.8	0%
2	O=C(O)c1ccc(S(=O)(=O)N2CCSCC2)cc1	-6	5%	1%	i	4	0.9	0%
3	COc1ccc(-c2nc(CS(=O)CC(=O)NCC3CCCO3)c(C)o2)cc1 (configuration not stated)	9	2%	-1%	i	4	0.1	7%
4	COc1ccc(/C=N/NC(=O)CNC(=O)c2ccc3c(c2)OCCO3)c(C(=O)O)c1OC	3	9%	-2%	i	3	-1.2	2%
5	COc1ccc(C(C#N)Nc2ccc(C)cc2)cc1 (configuration not stated)	-28	2%	0%	i	12	-0.8	16%
6	C=CCn1c(CCNC(=O)c2ccccc2F)nnc1SCC(=O)Nc1nc(C)cs1	-12	13%	0%	i	-4	-2.6	-10%
7	CCOc1ccccc1N1CCN(CC(O)COc2ccc3c(C)cc(=O)oc3c2)CC1 (configuration not stated)	-70*	4%	-6%	i	-9	-5.6	5%
8	CCN1CCN(CNC(=O)c2cnccn2)CC1	-19	7%	0%	i	-7	2.3	-11%
9	CCOC(=O)N1CCN(c2cc(NCCO)c([N+](=O)[O-])c3nonc23)CC1	-5	6%	-3%	i	0	-3.5	-1%
10	CNC(=O)C1CC(=O)N(Cc2ccc3c(c2)OCO3)C(=Nc2ccc(OC)cc2)S1 (configuration not stated)	-4	-4%	2%	i	-2	-0.2	-5%
11	CCc1sc(C(=O)NCc2cc(C)n(C)n2)cc1Br	25	3%	-2%	i	7	0.0	-12%
12	C/C(=N/OCO/N=C(\C)c1ccccc1)c1ccccc1	?	-3%	2%	i	-4	-3.5	-7%
13	Fc1cccc(Cl)c1CSc1nnc(CNc2ccccc2)o1	1	11%	0%	i	-6	2.6	-5%
14	O=C(Nc1cc(Cl)ccc1O)c1cc(-c2ccc3c(c2)OCO3)on1	nt	nt	nt	nt	9	nt	nt
15	C=CCn1c(C)cc(C(=O)COc2ccc(S(=O)(=O)N3CCCC3)cc2[N+](=O)[O-])c1C	4	11%	1%	i	-4	-6.6	0%
16	CCOCCCN(Cc1ccco1)S(=O)(=O)c1cc2c(cc1C)NC(=O)CO2	nt	nt	nt	nt	-6	nt	nt
17	Cc1sc2nc(SCC(=O)c3cccs3)n(Cc3ccco3)c(=O)c2c1C	8	0%	-2%	i	0	-1.2	19%
18	COc1ccc(-c2noc(CN(C(=O)c3cccs3)C(C)C)n2)cc1	-19	-2%	-1%	i	8	-1.6	-5%
19	CCCN1CCN(C(=S)Nc2ccccc2C(F)(F)F)CC1	0	-5%	2%	i	-5	-1.2	3%
20	CC(c1nnc(SCC(=O)N2CC(=O)Nc3ccccc32)n1Cc1ccccc1)N(C)C (configuration not stated)	?	-2%	1%	i	-3	-2.0	6%

The last 3 entries of the section above lead into the next.
item	SMILES	DRD3 antagonist	EPAC2 ag	Mm-Cpn inhibitor	Akt phos inh	DRD3 agonist	CCT modulator	EPAC2 antagonist
18	COc1ccc(-c2noc(CN(C(=O)c3cccs3)C(C)C)n2)cc1	-19	-2%	-1%	i	8	-1.6	-5%
19	CCCN1CCN(C(=S)Nc2ccccc2C(F)(F)F)CC1	0	-5%	2%	i	-5	-1.2	3%
20	CC(c1nnc(SCC(=O)N2CC(=O)Nc3ccccc32)n1Cc1ccccc1)N(C)C (configuration not stated)	?	-2%	1%	i	-3	-2.0	6%
21	CC(OC(=O)Cn1cc(C(F)(F)F)ccc1=O)C(=O)NC(C)c1ccc(Cl)cc1Cl (configuration not stated)	-22	2%	0%	i	-17	-1.6	-11%
22	COc1ccc(N(CC(=O)N2CCN(C)CC2)S(=O)(=O)c2ccccc2)cc1OC	-21	3%	0%	i	-3	0.4	8%
23	COc1ccc(Cl)cc1C(=O)n1cnc2ccccc21	-22	21%	-2%	i	3	-3.6	13%
24	COc1ccc(-c2cc3ccccc3oc2=O)cc1NC(=O)c1ccc([N+](=O)[O-])o1	3	0%	1%	i	0	-0.2	5%
25	CC1=CC(C)(C)N2C(=O)C3(SCC(=O)N3c3ccc(O)cc3)c3cc(C)cc1c32 (configuration not stated)	30	2%	-1%	nt	-1	0.7	5%
26	COc1ccccc1N1C(=O)C2C(C(=O)c3ccccc3)=NN(c3ccc(Br)cc3)C2C1=O (configuration not stated)	-12	-2%	-7%	i	-7	-0.4	50µM*
27	C/C(=N\NC(=O)C(N)=O)c1cccc([N+](=O)[O-])c1	-12	3%	-1%	i	1	-1.2	13%
28	Cc1nn(Cc2c(F)c(F)c(F)c(F)c2F)c(C)c1NC(=O)c1nn(C)cc1Br	3	2%	-5%	i	5	2.0	-4%
29	NCCCCCc1nnc(SCc2cccc(Cl)c2)o1	2	-7%	-1%	i	-2	-1.8	9%
30	CCc1ccc(C2C(C(=O)O)c3ccccc3C(=O)N2C)cc1 (configuration not stated)	3	4%	0%	i	-1	0.1	7%

Down the list, quoted from above.
Nos. 22–25 in DRD3 agonist read -3, 3, 0, -1

Other results
item	SMILES	DRD3 antagonist	EPAC2 ag	Mm-Cpn inhibitor	Akt phos inh	DRD3 agonist	CCT modulator	EPAC2 antagonist
31	O=C(NN=Cc1ccc(OC(F)F)cc1)c1ccc(NS(=O)(=O)c2cccs2)cc1	-19	13%	-1%	i	-3	0.1	-12%
32	Cc1ccc(C(C(=O)NCc2ccco2)N(CC2CCCO2)C(=O)Cn2nnc3ccccc32)cc1 (configuration not stated)	0	-11%	2%	i	5	-5.0	-4%
33	CN(C)CCNC(=O)c1ccc(COCC(F)(F)F)cc1	12	-4%	0%	i	2	-1.5	12%
34	COc1ccc(-c2nc(CS(=O)CC(=O)NC3CCCCC3)c(C)o2)cc1 (configuration not stated)	-15	0%	1%	i	-2	-1.8	-1%
35	Cc1noc(C(=O)Nc2ccc3c(c2)OCO3)c1Cl	8	7%	-3%	i	-3	-4.0	-6%
36	O=C(Nc1cccc(Cl)c1)c1cc(-c2ccc3c(c2)OCO3)on1	nt	nt	nt	nt	2	nt	nt
37	COCCCNC(=O)CS(=O)Cc1nc(-c2cccc(C)c2)oc1C (configuration not stated)	nt	nt	nt	nt	4	nt	nt
38	CCOC(=O)N1CCN(C(=O)CCc2c(C)nc3nc(C)nn3c2C)CC1	4	1%	1%	i	-3	1.3	-8%
39	COC(=O)C1=NN(c2ccc(C)cc2)C2C(=O)N(c3ccccc3OC)C(=O)C12 (configuration not stated)	-3	12%	-2%	i	-10	1.8	-1%
40	O=C1NC2(CCC3(CC2)OCCO3)NN1c1ccccc1	3	3%	?	i	-5	1.2	-2%
41	COc1ccc(N(CC(=O)N2CCN(Cc3ccccc3)CC2)S(C)(=O)=O)cc1OC	6	4%	0%	i	-4	0.3	9%
42	O=C1c2nc3ccccn3c2C(=O)N1Cc1ccccc1	?	0%	0%	i	-13	-1.2	6%
43	CCN(CCO)c1ncnc2c1sc1nc(C(C)C)c3c(c12)CC(C)(C)OC3	-1	-15%	?	i	2	0.6	-25%
44	O=C1c2ccccc2C(=O)N1C(CO)C(O)c1ccc([N+](=O)[O-])cc1 (configuration not stated)	15	0%	1%	i	-4	1.0	1%
45	Cc1ccc(C(=O)N/C(=C\c2cccs2)C(=O)NCCCN2CCOCC2)cc1	?	15%	-4%	i	-12	-4.5	1%
46	COc1ccccc1C1CN(c2ccc(F)cc2F)N=C1c1cccs1 (configuration not stated)	?	15%	-2%	i	-7	-0.9	-7%
47	CCOC(=O)N1CCN(Cc2nc3cc(NC(C)=O)ccc3n2C(C)C)CC1	nt	nt	nt	nt	-8	nt	nt
48	CN1CC(=O)NC1=NC(=O)c1ccc(Cl)c(S(=O)(=O)N2CCCCCC2)c1	17	7%	1%	i	-11	-8.2	-2%
49	O=C1CCCC(=O)C1C(c1ccc(Cl)cc1)C1C(=O)CCCC1=O	2	0%	0%	i	-3	1.1	5%
50	O=[N+]([O-])c1c(NCCO)cc(N2CCCCCC2)c2nonc12	-2	10%	2%	i	0	0.6	-1%
51	Cc1ccc(C(=O)NCN2CCN(c3ccccc3)CC2)cc1	?	2%	0%	i	-21	-4.1	6%
52	Cc1nn(-c2ccccc2)nc1C(=O)Oc1cc(C(F)(F)F)nn1-c1ccccc1	-5	9%	2%	i	4	-0.5	-1%
53	Cc1cc(C)nc(/N=C(\N)N2CCc3ccccc32)n1	-4	-2%	-6%	i	2	0.5	-2%
54	CCCn1c(SCC(=O)N2CC(=O)Nc3ccccc32)n[nH]c1=O	7	5%	-8%	i	4	-0.3	12%
55	CCCOc1ccc(S(=O)(=O)N2CCCC2)cc1[N+](=O)[O-]	-22	11%	0%	i	-2	0.5	-6%
56	O=C(N(c1ccccn1)c1ccccn1)C12CC3CC(CC(C3)C1)C2	1	4%	4%	i	4	0.1	-8%
57	Cc1cccc(-c2nc3c(c(SCC(=O)N4CCCC4)n2)COC(C)(C)C3)c1	-5	-4%	1%	i	-9	-0.5	12%
58	Cn1c(SCC(=O)N2CC(=O)Nc3ccccc32)nc2ccccc2c1=O	12	7%	-6%	i	-6	1.4	3%
59	On1c(-c2ccccc2Cl)nc2ccccc21	-4	7%	-1%	i	1	-2.1	16%
60	CC(=O)CSc1nnc(-c2ccco2)n1-c1ccccc1	-9	-2%	0%	i	-4	-1.0	-14%
61	CCc1ccc(S(=O)(=O)Nc2ccc(-c3nc4cccnc4s3)cc2)s1	9	-7%	-4%	i	3	1.3	-13%
62	COc1cccc(-c2cc(C(=O)Nc3cccnc3Cl)no2)c1	9	27%	1%	i	16&5	-0.9	-16%
63	COCCCNc1ncnc2c1sc1nc(-c3ccco3)c3c(c12)CC(C)(C)OC3	12	-8%	-1%	i	60*	-1.1	2%
64	CCOc1ccc(NC(=O)CSc2nc3c(c(=O)[nH]2)CCCC3)cc1	nt	nt	nt	nt	-5	nt	nt
65	CCCc1cc(-c2[nH]ncc2-c2ccc3c(c2)OCCCO3)c(O)cc1O	50	17%	3%	i	3	0.0	-12%
66	COc1ccccc1N1CCN(CCOc2c(OC)cccc2OC)CC1	-68*	6%	-1%	i	-8	0.8	-14%
